ALR inh: inhibitors of human sulfhydryl oxidase ALR. purified ALR, DTT oxidation, H2O2 HRP-luminol luminescence. inhibition, % (concentration not given with the values). 3.8% of 290,000 active;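 active = mean and each replicate at 75% or more; inconclusive = only one of the two met; inactive = neither met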;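 note: stock transfer was 7.5 nL into about 7.5 µL; 0% = neutral wells and 100% = wells with inactivated enzyme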
Vif A3G: HIV-1 Vif–A3G interaction blockers – biochemical, TR-FRET, GST-Vif 1-94, biotin-A3G peptide, dose response retest, primary screen (AID 1117319) | TR-FRET GST-Vif / biotin-A3G peptide binding; higher % means a stronger effect; test concentration not given here; strong numbers were not always called active | inhibition, %; hits with a dose series show IC50 in µM | 0.57% of 260,000 active;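 active = above the screen mean plus three standard deviations and confirmed in dose response; inconclusive = results disagree or hit not tested in dose response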;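 note: Vif residues 1-94 fused to GST binding biotinylated APOBEC3G peptide 110-148; 0% = full assay without inhibitor and 100% = GST in place of GST-Vif; retest series ran down from 100 µM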
FGF22 binding: FGF22 (human) thermal shift binding | Q9HCT0 | recombinant FGF22 thermal shift, SYPRO orange fluorescence; percent of sucrose octasulfate shift, DMSO zero | calls only at 9.99 µM | 1.5% of 340,000 active;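 active = melting point raised past a set limit in the mean and every replicate; inconclusive = no clear call; three in four hits are not shown here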
Ecoli rRNA inh: inhibits bacterial ribosomal RNA function over humanized ribosomes | GFP signal change (wild-type ribosome), % (test concentration not listed) | 1.6% of 350,000 active | AID 720706 | E. coli WT GFP vs humanized-ribosome RFP mutants, fluorescence, 24 h; active compounds read low; DMSO median 0, no signal -100;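 active = significant combined selectivity score with lowered wild-type GFP, culture density cut under 30%, mutant RFP and density less affected; inactive = any of these conditions unmet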; note: one replicate is shown; some compounds called inactive have numbers as strong as hits
E coli growth: blocks Escherichia coli growth. OD600, 23 h; active compounds read low. OD600 absorbance (test concentration not listed). 0.21% of 330,000 active;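 active = OD600 absorbance below the run mean of sample wells minus 3.6 SD, in any replicate, cut at about 0.56 in these data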;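 note: stock transfer was 300 nL into about 60 µL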
HNF4A DNA FP: change in binding of human HNF4 alpha to DNA | P41235 | HNF4a-FITC DNA binding, fluorescence polarization, 1 h | activity change, % at 10 µM | 0.3% of 360,000 active; in the data active = activity change above about 30%, passing the limit was not always enough;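 note: controls were the assay level and a saturating level of protein; the project sought stronger binding though the title names inhibitors; some compounds called inactive have numbers as strong as hits; positive values seem to mean higher polarization but the record does not say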
Target sequence (P41235 whole entry, looked up): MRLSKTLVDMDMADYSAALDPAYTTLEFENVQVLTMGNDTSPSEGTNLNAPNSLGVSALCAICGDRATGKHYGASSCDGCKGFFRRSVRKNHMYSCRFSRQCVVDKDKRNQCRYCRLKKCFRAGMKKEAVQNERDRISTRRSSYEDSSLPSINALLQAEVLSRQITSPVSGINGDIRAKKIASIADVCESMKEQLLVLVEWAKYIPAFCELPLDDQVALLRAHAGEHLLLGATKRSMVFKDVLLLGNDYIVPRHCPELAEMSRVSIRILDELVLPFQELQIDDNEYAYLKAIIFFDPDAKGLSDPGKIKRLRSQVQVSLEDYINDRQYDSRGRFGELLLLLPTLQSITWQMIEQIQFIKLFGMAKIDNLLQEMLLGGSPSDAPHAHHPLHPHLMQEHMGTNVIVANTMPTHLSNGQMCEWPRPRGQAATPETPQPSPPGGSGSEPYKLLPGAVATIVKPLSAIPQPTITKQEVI
AF4-AF9 inh: blocks AF4 peptide binding to human AF9 | P42568 | AlphaScreen, biotin-AF4 peptide binding to FLAG-AF9 | inhibition, % at 10 µM | 0.47% of 350,000 active | AID 651704;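 active = every replicate reaching a set inhibition limit, whatever the replicate mean, cut at about 25% in these data; inconclusive = mean inhibition reaches that limit but some replicates miss it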;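 note: 0% = plate neutral control median and 100% = total signal loss; the record names both 10 and 1 µM as test concentration; the first replicate is given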
Target sequence (P42568 whole entry, looked up): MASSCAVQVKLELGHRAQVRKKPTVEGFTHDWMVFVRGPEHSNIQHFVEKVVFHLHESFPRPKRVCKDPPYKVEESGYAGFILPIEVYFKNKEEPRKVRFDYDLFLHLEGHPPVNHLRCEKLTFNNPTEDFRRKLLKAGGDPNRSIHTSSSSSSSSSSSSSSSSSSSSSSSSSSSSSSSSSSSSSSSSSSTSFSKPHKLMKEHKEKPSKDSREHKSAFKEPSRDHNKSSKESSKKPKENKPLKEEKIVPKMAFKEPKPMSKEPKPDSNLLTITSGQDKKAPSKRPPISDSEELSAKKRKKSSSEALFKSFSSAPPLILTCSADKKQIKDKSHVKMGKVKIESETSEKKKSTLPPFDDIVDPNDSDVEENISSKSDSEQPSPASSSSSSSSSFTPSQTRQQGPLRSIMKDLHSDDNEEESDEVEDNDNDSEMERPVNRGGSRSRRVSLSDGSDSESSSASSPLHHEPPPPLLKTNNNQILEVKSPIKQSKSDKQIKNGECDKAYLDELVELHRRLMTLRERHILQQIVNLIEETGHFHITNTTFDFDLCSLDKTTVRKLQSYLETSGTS
Ecoli rRNA inh OD600: second read-out of Ecoli rRNA inh, no call of its own (marks repeat the call); OD600 change, %; measured here: OD600 growth;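 optical density of the mix in the first replicate; 0 = DMSO median and -100 = no signal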
Ecoli rRNA inh RFP: further read-out of Ecoli rRNA inh, marked with its call; RFP signal change, %; measured here: RFP humanized mutant strains;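 first replicate; 0 = DMSO median and -100 = no signal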
* = called active by the depositor; i = inactive; ? = inconclusive; nt = no result given; & = joins results of further samples. This is a subset. The share of hits here may be higher or lower than overall.

SMILES	ALR inh	Vif A3G	FGF22 binding	Ecoli rRNA inh	Ecoli rRNA inh OD600	Ecoli rRNA inh RFP	E coli growth	HNF4A DNA FP	AF4-AF9 inh
O=S(=O)(Nc1ccc(S(=O)(=O)N2CCCC2)cc1)c1ccccc1Br	-2	-9%	i	-13	-17	-5.3	0.68	0.6	-1.8
O=[N+]([O-])c1ccc(/C=N/N2CCCCC2)cc1	21	-6%	i	8	9	-2.3	nt	0.0	-6.8
COc1ccccc1Cc1c(-c2ccc(F)cc2)nc2ccc(Br)cn12	nt	nt	i	-24*	-15*	0.7*	nt	22	5.0
O=C(Nc1ccc2c(c1)OCO2)N[C@@H]1CC[C@@H](CCNC(=O)C2CCCC2)O[C@H]1CO	nt	nt	i	3	0	0.7	nt	nt	-8.8
COc1ccc(-c2nc(C)ncc2-c2ccc(Cl)cc2)c(O)c1	4	-2%	i	-18	-13	-7.5	0.68	2.5	0.3
Cc1ccccc1C(=O)NC1CCN(CC(=O)Nc2ccc3c(c2)OCCO3)CC1	-18	-1%	nt	15	16	1.2	0.66	-5.3	0.7
CCCCc1nc2ccccc2n1Cc1nnc2n1-c1ccccc1SC2	-5	0%	nt	3	-7	0.7	0.72	-1.2	nt
COc1ccccc1NC(=O)N[C@@H]1C=C[C@H](CC(=O)NCc2ccc(Cl)c(Cl)c2)O[C@H]1CO	nt	nt	i	3	6	0.0	nt	nt	3.0
COc1ccc2c(=O)c(-c3ccc(OC)c(OC)c3)coc2c1	0	nt	i	nt	nt	nt	0.71	5.5	-2.7
CCN(CC)S(=O)(=O)c1ccc(OCC(=O)NCc2ccco2)cc1	-7	6%	i	9	6	-1.8	0.67	4.6	2.0
O=C(COC(=O)c1sc2ccccc2c1Cl)NC1CCCCC1	1	nt	nt	nt	nt	nt	0.65	-2.0	nt
NNC(=O)CNC(=O)CNS(=O)(=O)c1ccccc1	9	5%	i	29	20	-0.3	0.68	-1.2	-2.2
COc1ccccc1CN(C)C(=O)c1cccc(S(=O)(=O)N2CCCC2)c1	nt	19%	i	1	3	-0.7	0.68	-0.3	-0.5
CN(Cc1ccccc1)C1CC(=O)N(c2ccc(C(=O)O)cc2)C1=O (centres undefined)	3	0%	nt	nt	nt	nt	0.7	-1.4	nt
Cc1ccc2[nH]c3c(NCc4ccco4)ncnc3c2c1	-6	?	nt	nt	nt	nt	0.52	3.4	nt
CC(=O)O[C@H]1CSC[C@H]1NC(=O)c1ccccc1	-16	-2%	nt	nt	nt	nt	0.73	-1.8	-5.6
COC(=O)C[C@H]1C=C[C@@H](NC(=O)Nc2ccc(C(F)(F)F)cc2)[C@@H](CO)O1	nt	nt	i	-9	-6	-1.6	nt	nt	-0.5
O=C1CC(=Nc2ccccc2)NN1c1ccccc1	57	13%	nt	nt	nt	nt	0.7	-3.3	nt
CCOC(=O)[C@H]1[C@H]2COc3ccccc3[C@@H]2N2C(=O)c3ccc(C)cc3NC(=O)[C@@]12C	nt	nt	i	-5	-15	-3.7	nt	-4.5	-0.3
CCOC(=O)Nc1sc(C)c(C)c1C(=O)OCC	-13	-3%	i	-20*	-8.9*	-5.0*	0.64	-0.8	-1.8
O=C(CN1CCOCC1)Nc1cccc([N+](=O)[O-])c1	nt	nt	nt	32	27	1.4	0.66	2.9	-3.7
CCc1nc2ccc(C(=O)NCCOc3ccc(OC)cc3)cn2c1N(CCC(C)C)CCN(C)C	nt	nt	i	-1	-18	28	nt	6.6	14
C=CCc1ccc(OCc2ccc(C(=O)Nc3ccc(NC(C)=O)cc3)o2)c(OC)c1	nt	-1%	i	-11	-9	3.7	0.7	0.8	-1.7
COc1ccc(S(=O)(=O)N2CCCN(CC(=O)Nc3ccc(NC(C)=O)cc3)CC2)cc1	nt	-3%	i	21	9	1.1	0.7	8.0	-8.8
CO[C@H]1CN(C)C(=O)c2cc(NC(=O)C3CCCCC3)ccc2OC[C@@H](C)N(Cc2cccnc2)C[C@@H]1C	nt	nt	i	1	-1	-0.2	nt	nt	0.1
COc1cc(C(=O)OCC(=O)c2c[nH]c3ccccc23)ccc1OCC(=O)N1CCOCC1	17	20%	nt	nt	nt	nt	0.67	7.4	nt
Cc1ccc2c(c1)N(CC(=O)NC1CCCC1)C(=O)c1cccnc1O2	38	-6%	i	9	9	-0.7	0.69	-3.5	0.8
C/C=C/c1ccc([C@H]2[C@@H](C#N)N(C(=O)Cc3ccccn3)[C@@H]2CO)cc1	nt	nt	i	-1	4	3.0	nt	nt	2.0
CC(C)C(=O)Nc1ccc2c(c1)nc(CCN1CCN(c3ccccc3)CC1)n2C	73	-5%	i	-8	-9	0.1	0.66	6.4	-3.3
CCN(CC)C(=S)Nc1c(C)n(C)n(-c2ccccc2)c1=O	2	nt	i	15	12	-0.6	0.65	-4.2	-2.3
NC(=O)CC(NC(=O)Cc1ccc(Cl)cc1)c1ccc(NCc2ccccc2)c([N+](=O)[O-])c1 (centres undefined)	3	nt	i	2	1	-7.2	0.7	9.0	2.1
O=C(CCC(=O)c1cccs1)Nc1ccc(N2CCCCC2)cc1	90*	11%	nt	-9	-5	0.7	0.66	-0.9	3.8
C[C@@H]1CN([C@@H](C)CO)C(=O)c2cc(N(C)C)ccc2O[C@@H](C)CCCCO[C@H]1CN(C)S(=O)(=O)c1ccc(F)cc1	nt	nt	i	3	0	-0.3	nt	nt	-3.1
Cc1ccc(C(=O)C2CCN(CC(=O)NCc3ccc(F)cc3)CC2)cc1	nt	0%	i	-3	3	-1.7	nt	-1.2	0.5
CCN1C(=O)[C@H]2[C@@H](c3ccc(C(F)(F)F)cc3)N[C@]3(CCCN(Cc4ccc(C)cc4)C3=O)[C@H]2C1=O	nt	3%	i	-2	-15	4.3	nt	4.2	-11
CC(=O)NCCc1nc2cc(NC(=O)c3ccc(Cl)cc3)ccc2n1C	0	3%	i	8	7	-5.0	0.66	-0.2	-4.8
Cc1ccccc1-n1c(SC/C(O)=C(\C#N)c2nc3ccccc3[nH]2)nnc1-c1ccncc1	-1	16%	nt	nt	nt	nt	nt	5.3	nt
CCCCCCn1c(Br)nc2c1c(=O)n(C)c(=O)n2C	-4	nt	i	-4	-13	4.0	0.66	6.1	-0.6
C/C=C/c1ccccc1[C@@H]1[C@@H](CO)N(S(=O)(=O)c2cccc(F)c2)[C@H]1C#N	nt	nt	i	-24	-55	21	nt	nt	0.4
CC1(C)O[C@@H]1COc1c2ccoc2cc2oc(=O)ccc12	-1	-7%	i	-5	6	-2.0	nt	-3.2	-1.3
CCOC(=O)c1ccc(Nc2ncnc3nc[nH]c23)cc1	-5	-7%	nt	nt	nt	nt	0.7	-1.1	nt
CC(C)NC(=O)N(C)C[C@@H]1Oc2ccc(NC(=O)Nc3cccc4ccccc34)cc2CC(=O)N([C@@H](C)CO)C[C@@H]1C	nt	nt	i	-2	-4	1.6	nt	nt	4.2
COc1ccc(OCc2ccc(-c3nc4ccccc4c(=O)n3N)o2)cc1	-7	1%	nt	nt	nt	nt	0.76	1.6	nt
S=c1sscc1-c1ccccc1	nt	0%	i	6	3	31	0.67	0.1	19
O=C(c1ccc(C#CC2(O)CCCCC2)cc1)N1CCOCC1	0	0%	nt	nt	nt	nt	0.71	1.9	nt
CCc1nc(SCC(=O)Nc2ccc(F)cc2)c2c(=O)n(C)c(=O)n(C)c2n1	-21	-6%	i	0	-1	0.9	0.7	-1.3	-6.4
Cc1nn(CCN)c(C)c1Cl	-1	4%	i	20	22	2.6	0.59	-1.5	-3.2
CCn1nc(C)cc1C(=O)N(C)C1CCCN(Cc2ccccc2F)C1 (centres undefined)	5	-9%	i	2	6	-0.4	0.69	4.7	3.3
NS(=O)(=O)c1cc(C(=O)Nc2ccc3c(c2)OCCCO3)ccc1Cl	0	nt	i	1	2	-1.2	0.64	-0.4	1.9
COC(=O)c1ccc(CN(c2ccc(C)cc2)S(=O)(=O)c2ccc3c(c2)OCCO3)o1	-23	5%	nt	nt	nt	nt	0.77	-2.8	nt

Some entries already given, limited to HNF4A DNA FP and Ecoli rRNA inh OD600:
mol	HNF4A DNA FP	Ecoli rRNA inh OD600
O=C(c1ccc(C#CC2(O)CCCCC2)cc1)N1CCOCC1	1.9	nt
CCc1nc(SCC(=O)Nc2ccc(F)cc2)c2c(=O)n(C)c(=O)n(C)c2n1	-1.3	-1

The list continues.
SMILES	ALR inh	Vif A3G	FGF22 binding	Ecoli rRNA inh	Ecoli rRNA inh OD600	Ecoli rRNA inh RFP	E coli growth	HNF4A DNA FP	AF4-AF9 inh
C[C@H](CO)N1C[C@H](C)[C@H](CN(C)S(C)(=O)=O)Oc2cc(C#CC3CC3)ccc2S1(=O)=O	nt	nt	i	0	-3	-1.8	nt	nt	-12
CC(C)C(=O)Nc1cccc(-c2cnc3ccccc3n2)c1	-4	4%	nt	nt	nt	nt	0.67	1.4	nt
Clc1ccc(-c2ccccc2)cn1	1	nt	i	8	7	-0.2	0.62	1.1	-11
COc1ccc(C)cc1NC(=O)CCCN1C(=O)C(c2ccccc2)Oc2cccnc21 (centres undefined)	-1	nt	i	0	-4	-0.5	0.63	0.3	2.2
COc1ccc(S(=O)(=O)Nc2ccc3c(c2)C(=O)N([C@H](C)CO)C[C@@H](C)[C@@H](CN(C)C(=O)NC(C)C)OCCCC[C@H](C)O3)cc1	nt	nt	i	1	-3	-2.2	nt	nt	1.9
CCn1c(COc2ccccc2C)nnc1SCC(=O)Nc1ccc2c(c1)OCCO2	nt	3%	nt	nt	nt	nt	0.72	2.3	nt
CC(C)(C)C1CCC(=NNC(=O)c2ccccc2-n2cccc2)CC1 (centres undefined)	5	6%	nt	nt	nt	nt	0.68	1.9	nt
COc1cccc(CC(NC(C)=O)C(=O)NC2CCN(c3c(Cc4ccccc4)c(C)nc4ncnn34)CC2)c1 (centres undefined)	-1	-11%	nt	nt	nt	nt	0.69	1.4	nt
CC(C)CC(Nc1ncnc2scc(-c3ccccc3)c12)C(=O)O (centres undefined)	55	nt	i	-1	5	-2.3	0.7	-1.3	-4.6
COc1ccccc1C(=O)COC(=O)/C(=C/c1ccccc1)NC(C)=O	30	1%	i	4	4	1.3	0.69	2.6	-1.4
CC(=O)Nc1ccc(C(=O)OCC(=O)c2cccc([N+](=O)[O-])c2)cc1	-6	13%	nt	nt	nt	nt	nt	-3.3	nt
COc1ccc2c(COC(=O)[C@@H]3CCCN3S(=O)(=O)c3ccc(Cl)cc3)cc(=O)oc2c1	nt	-8%	i	-4	-9	0.6	0.66	2.4	-1.1
CCOC(=O)c1c(NC(=O)C2CC2)sc2c1CC(C)(C)OC2	-2	16%	i	18	12	0.8	0.68	5.0	-0.7
O=C(C1CCCCC1)N1C[C@@H]2[C@H](c3ccccc31)[C@H](CO)N2C(=O)Cc1ccccn1	nt	nt	i	-1	-10	4.9	nt	nt	2.3
Cc1ccc2nc(-c3cccnc3SCC(=O)N3c4ccccc4CC3C)[nH]c2c1 (centres undefined)	1	0%	i	-1	-3	0.9	0.72	3.0	2.0
COc1ccc(-c2cnc3c(c2)C(=O)N([C@H](C)CO)C[C@@H](C)[C@H](CN(C)Cc2ccccc2)O3)cc1	nt	-3%	i	5&-5	9&-4	4.1&2.2	nt	-7.8	3.2&2.9&6.8
Cc1cc(C)c([N+](=O)[O-])cc1NC(=O)CCSc1ccccc1Cl	-4	-14%	i	8	6	-1.4	0.73	1.4	-0.5

Screening results deposited in PubChem BioAssay by several laboratories.
